Mtb hypoxia inh: inhibitors of hypoxia-regulated fluorescent reporter in Mycobacterium tuberculosis; M. tuberculosis hypoxia-regulated fluorescent reporter, fluorescence; fluorescence inhibition, % (no concentration beside the values); hit rate 0.1% among 300,000;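 active = 35 to 45% if threefold the growth effect, above 45% if 1.5-fold the growth effect; inactive = the rest, general growth blockers included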;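 note: wells of about 50 µL received 100 nL stock; 0% = vehicle wells and 100% = reference inhibitor wells; whole bacteria with a GFP reporter of the hypoxia response; strong numbers were not always called active; many hits fall short of the cut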
Bead autofluor: compound fluorescence in toxin protease inhibitor counterscreen; fluorescence intensity (concentration not given with the values); hit rate 3.1% among 360,000; compound autofluorescence counterscreen, microsphere flow cytometry; hits give high values;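 active = at least 3 SD above the mean of all compounds, about 16000 in these data; inconclusive = too few beads counted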;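 note: 100 nL of 1 mM stock went into each well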
BJeLR viability: kills HRASV12-expressing BJeLR cells; AID 1554; hit rate 0.17% among 300,000; inhibition, % (concentration not given with the values); BJeLR (HRASV12) viability, CellTiter-Glo ATP luminescence, 48 h; reference of the scale not given here;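 active = replicate mean above 50%; inconclusive = above 50% but judged a plate artefact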;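 note: 50 nL library stock added to about 25 µL; numbers are from one replicate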
ugtP null kill: growth inhibition of S. aureus ugtP deletion strain; S. aureus RN4220 ugtP deletion, OD600 growth, 16 h; some inactives read as strong as hits; hit rate 0.54% among 330,000; growth inhibition, % (no concentration beside the values); AID 1259309;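 active = z-score under -3 and OD600 up to 0.15 on both plates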;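 note: plate controls were untreated wells for no effect and antibiotic for full effect; wells of about 80 µL received 100 nL stock; the first replicate is given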
PrP 5UTR inh: suppresses PrP 5' UTR mRNA reporter expression; cell-based PrP 5' UTR mRNA reporter, plate reader; inhibition, % (concentration not given with the values); hit rate 0.35% among 340,000; AID 488862;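 active = every replicate at 50% or more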;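 note: 0 = median of the neutral control wells; tested in H4 reporter cells; numbers are from one replicate; inactives centre near -14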
Sa RN4220 lethal: S. aureus RN4220 growth inhibition | OD600, 16 h | inhibition, % (no concentration beside the values) | hit rate 0.33% among 330,000 | AID 1259311;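 active = z-score of -3 or lower and OD600 up to 0.18 on both plates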;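 note: plate controls were untreated cells for no effect and reference antibiotic for full effect; stock transfer was 100 nL into about 80 µL; one replicate is shown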
Mtb hypoxia inh growth: recorded beside Mtb hypoxia inh, whose call it bears; growth inhibition, %; measured here: M. tuberculosis growth (absorbance);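 0% = vehicle and 100% = reference antibiotic; read after six days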
Starred values were filed as active, the others as inactive; ? = inconclusive; · = no result given.

SMILES	Mtb hypoxia inh	Mtb hypoxia inh growth	Bead autofluor	BJeLR viability	ugtP null kill	PrP 5UTR inh	Sa RN4220 lethal
CCN(CC)c1ccc(NC(=O)Nc2ccccc2)cc1	1	-7	2901	-1	6	-35	1.7
COc1ccc(OCC(=O)Nn2c(-c3ccc(OC)cc3)nc3ccccc3c2=O)cc1	1	1	2070	-10	-8	8	3.8
CCOC(=O)c1c(C)[nH]c(C(=O)COC(=O)CCS(=O)(=O)c2ccc(C)cc2)c1C	1	-2	2565	-3	-1	-7	2.2
Cc1cc([N+](=O)[O-])nn1Cc1ccc(C(=O)NN=Cc2ccccc2)cc1	-1	8	·	·	0	·	1.3
COC(OC)c1ccc(C#N)c(SCc2ccc(C)cc2)n1	-7	6	3643	-1	2	-35	1.1
CC1CCN(CCC(=O)Nc2nccs2)CC1	-1	4	5491	-5	0	-21	0.1
CC1(C)CC2(CCO1)OC(=O)CC2C(=O)Nc1cccc2ccccc12 (centres undefined)	14	10	8923	-4	-3	-7	2.3
CC(C)c1nc2ccc(Br)cn2c1NC1CCCC1	11	6	4140	-12	7	-8	2.6
O=C(Nc1ccccc1)c1ccc(S(=O)(=O)NCc2cccnc2)cc1	-2	-1	5824	1	6	-11	0.6
Cn1c(SCc2ccccc2C#N)nc2ccccc2c1=O	12	6	5386	3	3	-16	2.1
O=C1CCCN2N=C(SCC(=O)N3CCCCC3)SC2=N1	4	2	3997	1	14	-10	5.7
COc1cc(/C=C2\SC(=S)N(NC(=O)c3ccccc3OC)C2=O)ccc1O	7	-1	3404	4	5	-13	9.1
COc1ccc(CCNC(=O)c2ccc(CS(=O)(=O)Cc3cccc(C)c3)o2)cc1OC	16	4	5745	13	10	-12	4.1
CC(C(=O)N1CCCC1)N1CCN(S(=O)(=O)c2ccccc2)CC1 (centres undefined)	6	6	3598	·	10	-34	3.5
Cc1ccc(C)c(OCCCC(=O)Nc2ccccc2C(N)=O)c1	7	12	2453	-4	-1	-12	5.3
C/C=C(/C)C(=O)O[C@@H]1c2c(ccc3ccc(=O)oc23)O[C@@H]1C(C)(C)OC(C)=O	·	·	3909	-8	·	-28	·
COc1ccc(S(=O)(=O)N2CCCC(C(=O)NCc3ccccn3)C2)cc1Cl (centres undefined)	2	8	9196	-10	12	-9	3.7
CCc1cc2cc(OC)ccc2nc1SCC(=O)Nc1cc(OC)c(OC)cc1C(=O)O	5	2	4522	17	7	-11	10
C/C(=N\NC(=O)C1CC1(C)c1ccccc1)c1ccco1 (centres undefined)	·	·	1951	-9	·	-22	·
CC(=O)Nc1ccc2nc(NC(=O)COc3ccccc3)sc2c1	5	4	4151	-2	2	-18	2.7
CCCCCCCNC(=O)CC(NS(=O)(=O)c1ccc(NC(C)=O)cc1)C(C)C (centres undefined)	-4	0	2028	-7	7	-4	8.1
CCOC(=O)C1CCCN(C(=O)c2cnn3c(C(F)F)cc(-c4ccc(C)cc4)nc23)C1 (centres undefined)	·	·	3924	2	-13	-12	1.7
CCc1cccc(C)c1NC(=O)COC(=O)C1CC(=O)N(CCc2ccc(OC)c(OC)c2)C1 (centres undefined)	7	4	?	·	4	-34	3.8
CCCCn1c(N)c(N(CCOC)C(=O)CN2C(=O)NC3(CC(C)CC(C)(C)C3)C2=O)c(=O)[nH]c1=O (centres undefined)	7	5	2996	·	-6	-6	0.5
CC1=C(C(=O)Nc2ccccn2)C(c2ccc(Br)cc2)n2ncnc2N1 (centres undefined)	-4	6	8007	-13	-3	-17	-0.5
Cc1nn(-c2ccccc2)c(C)c1-c1nnc(-c2c(C)nn(-c3ccccc3)c2C)o1	12	18	3081	2	1	-10	0.6
Cc1ccc2nc(Cl)c(CN(Cc3cccs3)C(=O)C3CC3)cc2c1	9	9	9194	-4	13	-31	2.5
N#Cc1c2n(c3c(=O)[nH]cnc13)CCCC2	-5	-2	5888	-4	-4	5	-2.7
CCCNC(=O)C(Cc1cccc(Cl)c1)NC(=O)c1ccc(C#N)cc1 (centres undefined)	1	7	4079	·	5	-25	4.0
O=C(O)c1ccc2nc(C(F)(F)F)[nH]c2c1	12	7	21497*	·	-12	0	5.7
CC=C1COC(C(=O)NCc2ccncc2)(C(F)(F)F)C=C1C=C1CCCCC1 (centres undefined)	8	8	·	·	-8	·	3.0
C/C=C/c1ccc(OCCn2nnc3ccccc32)c(OC)c1	4	-7	3675	-9	5	-22	13
Cn1nnnc1SCC(=O)Nc1ccccc1-c1ccccc1	·	·	3569	5	4	-10	5.0
Cc1c(Cl)cccc1NC(=O)CNc1cccc(C(F)(F)F)c1	17	11	2400	4	-11	-10	0.0
CCOc1cc(C#N)c(NC(=O)c2ccnn2C)cc1OCC	·	·	5849	-9	9	-9	-0.6
N#C/C(=C/c1ccc2c(c1)OCO2)C(=O)Nc1ccc(O)cc1	4	7	3524	1	4	-31	2.3
CCOC(=O)c1cnc(C(C)(C)C)[nH]c1=O	·	·	3765	-1	-1	-25	0.7
CC1(C)CC(=O)C=C(N2CCNCC2)C1	9	3	9732	-9	6	16	2.6
Cc1csc2ncnc(N3CCN(C(=S)Nc4ccc(C(F)(F)F)cc4)CC3)c12	3	9	5438	-2	6	-8	-1.0
COc1cc(NC(=S)N2CCCC(C)C2)cc(OC)c1OC (centres undefined)	12	2	2236	-3	-3	-21	2.4
CCCCn1c(=O)c(C(=O)Nc2ncccc2C)c(O)c2ccccc21	-1	11	4046	4	100*	-1	67
CCCN=C1N(CC)C[C@@H]2[C@@H]3C(=O)N(C)C(=O)[C@@H]3[C@](CC)(C(=O)OC)N12	-2	0	3024	·	6	-12	0.1
Cc1c(C(N)=O)c(-c2ccccc2)nn1-c1ccccc1	13	6	1965	-16	5	-13	4.0
CCCCSCCCNC(=O)Nc1cccc(OC)c1	3	1	6678	-7	14	-25	6.4
c1ccc(-c2nnc(SCc3nc4ccccc4[nH]3)o2)cc1	10	11	18842*	·	-4	-46	2.4
CSc1ncccc1C(=O)OCC(=O)Nc1ccc(C)c(S(=O)(=O)N2CCOCC2)c1	11	10	3951	·	1	-10	1.3
COC(=O)c1ccccc1NC(=O)CSc1nnc(-c2cccc(NC(C)=O)c2)n1C	8	10	2917	3	0	-20	4.1
CCN1C(=O)CC(NC2CCN(C(=O)c3ccc(F)cc3)CC2)C1=O (centres undefined)	14	7	4977	-6	8	-19	-0.1
CCNc1cc(Nc2c(C)n(C)n(-c3ccccc3)c2=O)c([N+](=O)[O-])c2nonc12	13	9	11081	-16	3	-3	0.8
COc1cc(C2=NOC(C(=O)NCc3cccnc3)C2)cc(OC)c1OC (centres undefined)	-9	4	3925	0	5	-14	1.5
NC(=O)C1CCN(C(=O)CNC(=O)c2ccc(F)cc2)CC1	2	8	3504	·	4	-27	-0.5
COc1ccccc1NC(=O)CCC(=O)N(Cc1ccc(OC)c(OC)c1)c1nccs1	19	14	5046	11	7	-21	6.7
CCNc1nc(NCC)nc(NN=Cc2cc(OC)c(OC)c(OC)c2)n1	5	10	·	·	16	·	-3.1
Cc1cccc(C)c1NC(=O)CSc1ccc([N+](=O)[O-])cn1	-3	6	2636	2	2	-14	8.7
O=C(CCSc1nnnn1-c1ccccc1)N1CCOCC1	·	·	3817	1	8	-24	6.1
O=[n+]1cc(-c2cc3ccccc3o2)n([O-])c2c1CCCC2	5	9	4495	-1	-7	-46	-0.1
O=C(O)COc1ccc(NC(=O)c2cccs2)cc1	5	0	8095	-6	9	-13	2.4
CCN(CC)c1ccc(N=Cc2c(O)n(-c3ccc(Cl)cc3)c(=O)[nH]c2=O)cc1	·	·	3691	18	2	-11	5.8
Cc1ccc(NC(=O)/C(=C\c2ccco2)NC(=O)c2ccco2)cc1	-1	-2	3098	-3	3	0	-0.2
O=C(CC1Oc2ccccc2NC1=O)NCCCN1CCN(C2CCCCC2)CC1 (centres undefined)	·	·	4662	4	6	70*	0.1
Remaining list, next part
SMILES	Mtb hypoxia inh	Mtb hypoxia inh growth	Bead autofluor	BJeLR viability	ugtP null kill	PrP 5UTR inh	Sa RN4220 lethal
NC12CC3CC(C1)CC(CC(=O)O)(C3)C2	-11	4	4522	9	1	-12	-0.7
O=C(NNC(=O)c1ccccc1O)c1ccc(-c2ccc([N+](=O)[O-])cc2)o1	9	0	6759	1	3	-19	12
O=S(=O)(c1ccc(Cl)s1)N1CCN(CCc2ccccc2)CC1	5	3	5871	2	7	-26	1.5
Cc1ccc(C2CC2C(=O)NNC(=S)Nc2ccc(Cl)cc2)cc1 (centres undefined)	8	0	?	4	5	-17	-4.2
CC(Nc1nc(-c2ccc(Cl)cc2)cs1)c1nc2cc(Cl)c(N3CCCCC3)cc2n1CCOCCO (centres undefined)	6	14	3928	-13	-7	-10	-10
CCCCNC(=S)N1CCC(Cc2ccccc2)CC1	15	13	5085	-7	9	3	-7.1
CCCn1c(SCC(=O)c2ccc3c(c2)OCCO3)nnc1C(C)C	16	14	3352	-6	14	-9	-1.4
CN(C(=O)CCc1nc(-c2ccccc2F)no1)c1ccccc1	4	-2	3731	1	3	-35	0.1
CC(=O)N1CCc2cc(S(=O)(=O)CCC(=O)Nc3cccc(F)c3)ccc21	·	·	4693	2	0	-10	3.2
CCOC(=O)CC(NC(=O)c1ccco1)c1ccccc1Cl (centres undefined)	7	1	3414	-2	8	-4	5.9
COc1cccc(N2C(=O)C3CCCN3C2=S)c1 (centres undefined)	-3	2	3817	-5	-1	-19	-2.5
O=C(NNC(=O)c1ccc(Cl)nc1)c1ccncc1	7	5	4791	·	1	-2	1.0
CC1CCN(S(=O)(=O)c2ccc([N+](=O)[O-])cc2)CC1	18	9	4110	-2	41	-24	40
CCNc1nc(ON=C(C)C)nc(N(C)C)n1	5	3	2113	-2	-7	-16	4.5
CCOc1ccc(S(=O)(=O)N2CCC(C(=O)NCC3CCCO3)CC2)cc1 (centres undefined)	8	-4	?	-3	3	-9	0.0
COc1ccc(-c2nc3ccccc3c(=O)n2O)cc1	-2	-6	3006	-4	-3	·	3.8
COc1ccc2c(c1)C=C([C@@H]1C[C@H]3CN(c4ccccc4)C(=O)[C@]34CCCN14)CO2	5	-6	2482	0	4	-1	2.4
C=CCNC(=O)/C(C#N)=C/c1cc(Br)ccc1OC	0	5	2119	7	-4	-14	15
Cc1cc(C)n(-c2nc3ccccc3c(=O)n2OCC#N)n1	10	10	4294	13	13	24	26
CCN(CC)c1ccc(/C=N/N2CCN(c3ccccc3OC)CC2)cc1	·	·	3629	-5	·	-1	·
O=C(CCC(=O)NC1CCCCC1)N/N=C/c1ccncc1	·	·	4496	-2	·	-35	·
COc1ccc(N(CC(=O)NC2CCS(=O)(=O)C2)S(=O)(=O)c2cc(C)ccc2C)cc1 (centres undefined)	6	-4	2881	·	5	-29	0.6
CCOC(=O)C(CC)Sc1nc2c(c(=O)[nH]c(=O)n2C)n1CCc1ccccc1 (centres undefined)	6	9	2638	-6	14	-4	0.5
COc1ccc(C(=O)NCCc2nnc(SCC(=O)Nc3ccccc3)n2C)cc1	·	·	2155	2	-3	-23	-1.7
Cc1nn(Cc2ccc(C(=O)N3CCN(C(=O)c4ccco4)CC3)o2)c(C)c1[N+](=O)[O-]	2	-4	4416	-1	11	-15	4.1
